High-throughput results from PubChem BioAssay.
Biofilm kill mix = clotrimazole potentiators killing C. albicans biofilm, primary screen, 4-compound mixtures; inhibition, % at 7.6 µM; actives 0.02% (n = 120,000); AID 1242, 2008; C. albicans biofilm persisters + clotrimazole, fluorescence viability; primary screen in compound mixtures of four per well;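 active = inhibition above 30.3% in the primary screen of four-compound pools, then above 30% when the compound was retested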;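 note: compounds exposed to preformed 24 h biofilms for 48 h; the number belongs to the whole pool; some results filed as inactive read as strong as hits; inactives centre near 12; 0% = biofilm with clotrimazole alone and 100% = kill control; retested singly at about 60 µM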
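Test system: C. albicans biofilms. Buffer or medium: RPMI/MOPS medium, pH 7.0. Timing: 48 h compound exposure at 37 °C. Technique: Alamar Blue fluorescence. Evaluation: percent inhibition of biofilm viability.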
Starred values were filed as active, the others as inactive. A portion of the library; the hit share may differ from the screen's.

smiles	Biofilm kill mix
CCOC(=O)n1cc(-c2cnc(CNC(=O)C(C)(c3ccccc3)c3ccccc3)o2)c2ccccc21	16
NC(N)=NC(N)=Nc1ccc2ccccc2c1	9
Cc1cccc(N(CC(=O)Nc2cccnc2)S(C)(=O)=O)c1	15
O=C(CSc1nc2ccccc2o1)N1CCN(S(=O)(=O)c2ccc3ccccc3c2)CC1	13
O=[N+]([O-])c1ccc(Cl)c(/C=N/n2c(COc3ccccc3)n[nH]c2=S)c1	19
COc1ccc(Cl)cc1NC(=S)NCc1cccnc1	8
On1nnc2c3ccccc3c3ccccc3c21	34
C/C(=N\Nc1c([N+](=O)[O-])c(C)nn1C)c1ccc(F)cc1F	15
Cc1ccc(NC(=O)CN2c3cccc4cccc(c34)S2(=O)=O)cc1S(=O)(=O)N1CCOCC1	9
COc1ccc(C(F)(F)F)cc1N/C=C/c1nnnn1-c1ccc(C)cc1	15
COC(=O)/C(=C\Nc1ccc(Oc2ccc(F)cc2F)nc1)NC(=O)c1ccccc1	17
Cc1cccc(C)c1Nc1nnc(SCC(=O)c2ccc3c(c2)NC(=O)CO3)s1	7
COc1ccccc1NS(=O)(=O)c1cc(NC(=O)c2[nH]c(C)c(C(C)=O)c2C)ccc1N1CCOCC1	21
COc1ccc(C(=O)NC(=S)N(C)Cc2ccccc2)cc1Br	11
CCCCNC(=O)c1c(CSc2ccccc2)noc1C(=O)NCc1ccccc1	9

The list goes on.
smiles	Biofilm kill mix
CNC(=O)/C(C#N)=C/c1c(N2CC(C)OC(C)C2)nc2ccccn2c1=O (stereo not given)	-2
CCCCN1C(=O)NC2NC(=O)NC21 (stereo not given)	19
Cc1ccc(-n2cnc3scc(-c4cccs4)c3c2=O)cc1	20
CN(C)c1ncc([N+](=O)[O-])cc1C(F)(F)F	18
CS(=O)(=O)c1sc(C(=O)NC(=O)Nc2cccc(C(F)(F)F)c2)c2c1C=CCC2	26
O=C(/C=C/c1ccc2c(c1)OCO2)N1CCN(c2ccc(Cl)cc2)CC1	11
COc1ccc2nc(NC(=O)NC3CCCCC3)sc2c1	5
O=C(CN1C(=O)c2ccccc2S1(=O)=O)NCCC1=CCCCC1	8
O=C(/C=C/c1ccccc1Cl)NNC(=O)c1cccs1	13
O=C(N/N=C\c1ccc([N+](=O)[O-])o1)C1COc2ccccc2O1 (stereo not given)	11
CC(=O)c1ccc(N2CCN(C(=S)NCCCN(C)C)CC2)cc1	6
CC(=O)N/N=C/c1cc2c(cc1[N+](=O)[O-])OCO2	18
CC[N+]1=C(C)C(C)(C)c2cc(C)ccc21	14
CCOC(=O)CN(C)S(=O)(=O)c1ccc(-c2cc(C(=O)OC)sc2C(F)(F)F)cc1	17
O=c1cnc2cc([N+](=O)[O-])ccc2[nH]1	15

Next part:
smiles	Biofilm kill mix
Cc1ccc(N2CCN(C(=O)c3cccc([N+](=O)[O-])c3)CC2)cc1Cl	-7
CC1=NNC(=O)C1Cc1ccc(F)cc1 (stereo not given)	16
Nc1nc(-c2ccc(Cl)cc2)nnc1-c1ccc(Br)cc1	26
N#C/C(=C\c1ccc(Cl)cc1)C(=O)Nc1cccnc1	14
CC(=O)Nc1ccc(NC(=O)C2CCN(c3c(Cc4ccccc4)c(C)nc4ncnn34)CC2)cc1	8
O=C(N/N=C\c1cc(Cl)ccc1O)c1ccc(S(=O)(=O)N2CCCCC2)cc1	13
Cc1cccc(C(=O)c2c(N)sc3c2CCC(C)C3)c1 (stereo not given)	7
Cc1c(/C=C(\CC(=O)O)c2nc3ccccc3s2)cc(C#N)n1C	16
O=C(CCN1C(=O)/C(=C/c2ccccc2)SC1=S)NNC(=O)c1ccncc1	6
CCOc1ccc(NC(=O)C(c2ccccn2)N(C(=O)CCl)c2ccc(OCC)cc2)cc1 (stereo not given)	5
COc1ccc(NC(=O)CSc2nc3ccccc3c(=O)n2CCCN2CCC(C)CC2)c(OC)c1	14
COc1ccccc1CNC(=O)C1CC(c2ccccc2F)=NO1 (stereo not given)	12
CC(C)N(C(=O)CS(=O)(=O)c1ccc(Cl)c(Cl)c1)C(C)C	6
C/C(=N\NC(=O)c1cc(-c2ccncc2)nc2ccccc12)c1ccc(N2CCOCC2)cc1	4
COc1ccc(/C=C/C2=CCN(Cc3ccc(OC)cc3)CC2)cc1	3

Additional structures follow:
smiles	Biofilm kill mix
Cc1ccccc1N1C(=O)C(Oc2ccc(Cl)cc2)C1CNCCCOC(C)C (stereo not given)	8
C#CCOCCOCCOCCNc1nc(N2CCN(C(=O)[C@H](CCC(=O)O)n3cc(C(N)CC(C)C)nn3)CC2)nc(N2CCN(C(=O)[C@H](Cc3ccc(O)cc3)n3cc(C(N)[C@H](C)CC)nn3)CC2)n1 (stereo not given in full)	19
CN1CN(C)c2cccc3cccc1c23	16
CCn1c(SCC(=O)Nc2ccc(Cl)cc2)nnc1C1CC1	21
Cc1cc(C)c(C)c(S(=O)(=O)N2CCN(C)CC2)c1C	6
COc1ccc(CC(=O)Nc2ccc(N3CCOCC3)cc2)cc1S(=O)(=O)N1CCOCC1	7
CC1CCC2(CC1)NC(=O)N(CC(=O)c1cn(CCC#N)c3ccccc13)C2=O (stereo not given)	20
CCn1cc(C(=O)Nc2ccccc2)c(=O)c2ccc(C)nc21	13
COc1ccc(C)cc1NC(=S)N1CCN(c2ccccn2)CC1	17
CN1CCC(OC(=O)Cc2ccc(Cl)cc2)CC1	24
CCCCOc1ccc(/C=C/C2=CC(C)(C)NC(=S)N2)cc1OCC	27
Cc1c(NC(=O)c2cccs2)cccc1-c1nc2ccccc2s1	15
Cn1ccnc1C(=O)c1ccc(S(=O)(=O)N2CCCC2)cc1	8
O=C(Nc1ccc(F)cc1)c1ccc2nc[nH]c2c1	7
COc1cccc(N2CCN(C(=S)Nc3cc(C)cc(C)c3)CC2)c1	7

New compounds follow:
smiles	Biofilm kill mix
Cc1onc(-c2ccccc2)c1C(=O)O/N=C(\N)c1ccc([N+](=O)[O-])o1	24
CN1C(=O)S/C(=C\c2ccccc2OCc2ccc(C(=O)O)cc2)C1=O	10
CC(C)CN1CCN(Cc2ccc(C#CC(C)(C)O)cc2)CC1CCO (stereo not given)	11
Cc1cc(C)n2cc(COc3ccccc3)nc2n1	6
COc1ccccc1N1CCN(C(=O)c2oc3cc(C)cc(C)c3c2C)CC1	15
Cc1c(O)c(S(=O)c2ccccc2)c(=O)n(-c2ccccc2)c1-c1ccccc1 (stereo not given)	17
CNCc1ccccc1OCc1ccc(F)cc1	15
Cc1ccc(S(=O)(=O)N2CCCCC2)cc1C(=O)OCC(=O)NC(=O)NC12CC3CC(CC(C3)C1)C2	16
O=C(Nc1cccc(S(=O)(=O)N2CCCC2)c1)c1ccc2c(c1)OCO2	21
Cc1cccc(C)c1NC(=O)COc1ccccc1C(=O)Nc1ccc(Br)cn1	3
CCOC(=O)C(NC(=O)CC)(Nc1nc2c(s1)CCCC2)C(F)(F)F (stereo not given)	8
Cc1ccc(COc2ccc(/C=N/NC(=O)c3nnn(-c4nonc4N)c3COc3ccc(F)cc3)cc2)cc1	18
CN(C)S(=O)(=O)c1cc(NC(=O)CN2CCN(c3ccccc3)CC2)ccc1Cl	4
COc1cc(/C=C/c2noc(-c3ccccc3O)n2)ccc1OC(C)=O	32
COc1cc(OC)cc(-c2nc3ccccc3c(=O)o2)c1	5

By substructure: the compounds so far containing bromine.
smiles	Biofilm kill mix
COc1ccc(C(=O)NC(=S)N(C)Cc2ccccc2)cc1Br	11
Nc1nc(-c2ccc(Cl)cc2)nnc1-c1ccc(Br)cc1	26
Cc1cccc(C)c1NC(=O)COc1ccccc1C(=O)Nc1ccc(Br)cn1	3

(next part)
smiles	Biofilm kill mix
Cc1nnc(SC(C)C#N)n1-c1ccccc1 (stereo not given)	1
CC(C)C(=O)Nc1ccc(C(=O)NNC(=S)NC(=O)c2cccs2)cc1	19
Cc1ccc(CN2CC(C(=O)Nc3nnc(SCc4c(Cl)cccc4Cl)s3)CC2=O)cc1 (stereo not given)	7
COc1ccc(C2N3CC4(C)CN2CC(C)(C3)C4O)cc1OC (stereo not given)	16
CC(=O)Cc1nsc(NC(=O)c2ccc(-c3cc(Cl)ccc3Cl)o2)n1	16
Cc1ccc(-n2c(C)cc(-c3csc(N)n3)c2C)cc1	7
O=S(=O)(c1ccccc1)N1c2cc(Cl)ccc2Oc2nc3ccccc3nc21	12
O=C(NNC(=O)c1cccs1)c1ccc(Br)o1	9
CC(=O)c1ccc(OCCOc2ccc(Cl)c3cccnc23)cc1	-9
Cc1cc(C)cc(NC(=O)c2cc(C)n(Cc3cccs3)c2C)c1	16
CCc1nc2sc(C(C)=O)c(N)c2c2c1CCCC2	3
Oc1[nH]c2ccccc2c1N=Nc1ncnc2c1oc1ccccc12	11
CCCNC(=O)[C@H](C)NC(=O)c1ccc(Br)cc1	15
COc1cc(C(=O)OCC(C)=O)ccc1OCc1c(C)noc1C	4
CCCn1c(=O)c2ccccc2n2c(SCc3cc(=O)oc4ccc5ccccc5c34)nnc12	19

Three structures out of the list, arranged by length of the SMILES, smallest number first:
smiles	Biofilm kill mix
O=C(NNC(=O)c1cccs1)c1ccc(Br)o1	9
CCc1nc2sc(C(C)=O)c(N)c2c2c1CCCC2	3
O=S(=O)(c1ccccc1)N1c2cc(Cl)ccc2Oc2nc3ccccc3nc21	12

Continued:
smiles	Biofilm kill mix
CCc1nnc(NC(=O)c2ccc3ncsc3c2)s1	13
COc1ccc(-c2ccc(-c3nc4c(c(=O)[nH]c(=O)n4Cc4ccccc4)n3C)o2)c([N+](=O)[O-])c1	17
COc1ccc(-n2c(C)cc(/C=C3/SC(=S)N(C)C3=O)c2C)cc1	16
Cc1[nH]c(=O)c(C(=O)c2cc(Cl)ccc2O)cc1C(=O)O	5
O=C(NS(=O)(=O)Oc1ccc(Cl)cc1)OC[C@@H]1CCCN2CCCC[C@H]12	20
CCOCCn1c(CN2CCC(C)CC2)nc2c1c(=O)n(C)c(=O)n2C	16
CSc1ncc(Cl)c(C(=O)Nc2cccc3ccccc23)n1	5
CC(C)c1nc2oc3c(NCCO)ncnc3c2c2c1COC(C)(C)C2	18
COc1ccc(CN2C(=O)N(c3ccc(OC)cc3)C(=O)C2CC(=O)Nc2ccccc2)cc1 (stereo not given)	6
COC(=O)C1=C(C)NC2=C(C(=O)CCC2)C1c1ccc(-c2ccsc2C(=O)OC)o1 (stereo not given)	12
O=C(CNc1ccc2c(c1)OCO2)N/N=C\c1cn(Cc2ccccc2)c2ccccc12	8
NCCCC[C@H]1CNC(=O)C(=O)N1CCc1cccc2ccccc12	3
O=C(NCc1csc(-c2cccs2)n1)c1cccc(Cl)c1	11
CC(C)NC(=O)COc1ccc(OCc2ccccc2)cc1	-1
COc1cc(/C=N/NC(=O)CSc2n[nH]c(=O)[nH]c2=O)cc(OC)c1O	21

Carrying on:
smiles	Biofilm kill mix
Cc1cccc(C(=O)Oc2ccccc2C(=O)N2CCOCC2)c1	18
O=C(CNC(=S)N(CCCN1CCOCC1)Cc1cccs1)N1CCOCC1	15
COc1cccc(NC(=O)CSc2nc3ccccc3c(=O)n2CCCC(=O)NCCCN2CCOCC2)c1	34
Clc1c(Cl)c(Cl)c2n[nH]nc2c1Cl	9
Cc1ccc(NC(=S)N(CCN(C)C)C(C)c2cccnc2)cc1 (stereo not given)	7
CC(CO)(CO)NCc1ccc(-c2ccccc2)cc1	6
CS(=O)(=O)N(CCc1ccccc1)CC(=O)Nc1ccccc1	9
Cc1ncc([N+](=O)[O-])n1Cc1ccccc1	3
Clc1cccc(CN2CCN(Cc3nc(CCc4ccccc4)no3)CC2)c1	15
COc1ccccc1NC(=O)c1c(Nc2ccccc2F)sc(C(=O)Nc2cccc(Cl)c2)c1N	12
COc1ccc(/C=C/C(=O)NC(=S)N2CCN(c3ccccn3)CC2)cc1OC	-7
CC(C)(C)NC(=O)C(c1ccncc1)N(C(=O)c1csnn1)c1cccc2ccccc12 (stereo not given)	18
Cc1c(N=C2C=CC(=O)c3ccccc32)c(=O)n(-c2ccccc2)n1C	28
O=C1NCCN1CCNS(=O)(=O)c1ccc(F)cc1	15
CNC(=S)N1CCN(c2ccccn2)CC1	14

(next part)
smiles	Biofilm kill mix
C=CCNC(=S)NNC(=O)c1cc(Cl)ccc1OC	18
Cc1cc(C)n(C2CC(=O)N(c3cc(Cl)cc(Cl)c3)C2=O)n1 (stereo not given)	21
CN(C)C(=O)Oc1ccc[n+](C)c1	12
CCOC(=O)C1(Cc2cccc(OC)c2)CCN(Cc2cnc(C)s2)CC1	14
COCCOc1cc(N)c(Cl)cc1Cl	-1
O=C(NC1CCCC1)C(c1ccncc1)N(C(=O)c1csnn1)C1CCCC1 (stereo not given)	4
COC(=O)C1=C(C)NC(=S)NC1c1ccco1 (stereo not given)	7
Fc1ccccc1/C=C/c1ccc2ccccc2n1	19
COc1c(C)cc(S(=O)(=O)NC2CC(C)(C)NC(C)(C)C2)c(C)c1C	5
COc1cc(C(=O)OCCCN=C2NS(=O)(=O)c3ccccc32)cc(OC)c1OC	12
CNc1nc2cc([N+](=O)[O-])c([N+](=O)[O-])cc2nc1NC	17
Cc1cc(C)c(NC(=S)NCCCSC2CCCCC2)c(C)c1	7
COc1ccc(Cl)cc1NC(=O)c1ccccc1C	12
O=C(CCN1C(=O)c2ccccc2C1=O)C1=NN[C@@H]2C(=O)N(c3ccc4c(c3)OCCO4)C(=O)[C@H]12	17
CC(c1ccncn1)N(C)Cc1nc(Cc2ccccc2F)no1 (stereo not given)	-2
